From PubChem
KCNQ2 pot: enhances the rat KCNQ2 potassium channel | B-score at 10 µM | AID 2239 | O88943 | 310,000 tested, 0.54% active | CHO-K1 KCNQ2, FluxOR thallium flux fluorescence; active compounds read high;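 active means fluorescence ratio B-score at least 3 SD of library B-scores, with initial fluorescence B-score within 3 SD, cut at about 5.3 in these data; same plate scores as AID 2156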;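 further: B-score of peak minus minimum over baseline fluorescence ratio after K+ and Tl+ stimulus; positive B-score means potentiation of KCNQ2 with more thallium influx and brighter signal; only the inactives scoring about 0 or higher are listed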
Target sequence (O88943 whole entry, looked up): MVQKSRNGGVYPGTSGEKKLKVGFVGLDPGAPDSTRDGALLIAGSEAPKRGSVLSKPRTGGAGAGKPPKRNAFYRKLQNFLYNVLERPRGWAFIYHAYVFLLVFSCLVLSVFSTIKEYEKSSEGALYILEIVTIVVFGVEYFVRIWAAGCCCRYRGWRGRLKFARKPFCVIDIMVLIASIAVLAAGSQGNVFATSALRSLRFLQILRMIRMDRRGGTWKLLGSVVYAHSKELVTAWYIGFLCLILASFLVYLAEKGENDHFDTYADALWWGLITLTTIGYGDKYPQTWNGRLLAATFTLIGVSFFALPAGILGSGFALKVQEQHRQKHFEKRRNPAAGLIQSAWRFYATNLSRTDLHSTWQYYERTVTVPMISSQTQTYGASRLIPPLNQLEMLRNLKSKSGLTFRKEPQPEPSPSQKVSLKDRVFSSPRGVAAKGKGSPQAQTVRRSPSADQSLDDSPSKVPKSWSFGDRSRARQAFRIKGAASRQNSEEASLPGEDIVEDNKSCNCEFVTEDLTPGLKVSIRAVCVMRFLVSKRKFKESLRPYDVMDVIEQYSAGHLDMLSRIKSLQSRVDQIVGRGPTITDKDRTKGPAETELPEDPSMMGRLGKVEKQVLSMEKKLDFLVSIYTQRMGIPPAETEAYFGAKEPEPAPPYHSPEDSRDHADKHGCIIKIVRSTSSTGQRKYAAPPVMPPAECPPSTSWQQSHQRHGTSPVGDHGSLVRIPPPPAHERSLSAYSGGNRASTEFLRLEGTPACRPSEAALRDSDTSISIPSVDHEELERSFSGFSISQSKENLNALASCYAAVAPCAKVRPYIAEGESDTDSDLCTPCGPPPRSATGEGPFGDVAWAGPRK
KCNQ2 pot baseline: recorded beside KCNQ2 pot, whose call it bears; B-score; compound at 10 µM; measured here: initial fluorescence intensity artifact check;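 brightness before thallium and not channel activity; 0 = typical well and far values either way flag optical interference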
Active calls of the source: *; & = joins results of further samples.

Start of the data: the first 7 compounds as a preview:
Each structure is followed by: KCNQ2 pot	KCNQ2 pot baseline
O=c1c(C(c2ccc(Cl)cc2)c2c(O)nc3n(c2=O)CCS3)c(O)nc2n1CCS2
  0.03	-0.51
COCCCNC(=O)Cn1cnc2sc(C)c(S(=O)(=O)N3CCN(c4ncccn4)CC3)c2c1=O
  0.6	-1.43
CCC(C)NC(=O)Cn1nc(C(F)(F)F)c2c1CCCC2 (stereo unspecified)
  0.72	0.38
CCn1cc(C(=O)N2CCN(c3ccc([N+](=O)[O-])cc3)CC2)c(=O)c2ccc(C)nc21
  0.26	-1.48
CCOC(=O)C1=C(COC(=O)c2cccc(NC(C)=O)c2)NC(=O)NC1C (stereo unspecified)
  0.41	-0.93
CC1=Nc2cc(C(=O)NCCCN3CCN(C)CC3)ccc2Sc2ccc(C)cc21
  1.5	-0.03
O=C(O)C1(P(=O)(c2ccc(Cl)cc2)c2ccc(Cl)cc2)CC1
  0.44	-0.89

The whole of this part, previewed entries included:
Each structure is followed by: KCNQ2 pot	KCNQ2 pot baseline
O=c1c(C(c2ccc(Cl)cc2)c2c(O)nc3n(c2=O)CCS3)c(O)nc2n1CCS2
  0.03	-0.51
COCCCNC(=O)Cn1cnc2sc(C)c(S(=O)(=O)N3CCN(c4ncccn4)CC3)c2c1=O
  0.6	-1.43
CCC(C)NC(=O)Cn1nc(C(F)(F)F)c2c1CCCC2 (stereo unspecified)
  0.72	0.38
CCn1cc(C(=O)N2CCN(c3ccc([N+](=O)[O-])cc3)CC2)c(=O)c2ccc(C)nc21
  0.26	-1.48
CCOC(=O)C1=C(COC(=O)c2cccc(NC(C)=O)c2)NC(=O)NC1C (stereo unspecified)
  0.41	-0.93
CC1=Nc2cc(C(=O)NCCCN3CCN(C)CC3)ccc2Sc2ccc(C)cc21
  1.5	-0.03
O=C(O)C1(P(=O)(c2ccc(Cl)cc2)c2ccc(Cl)cc2)CC1
  0.44	-0.89
COc1ccc(C(=O)OCC(=O)NCCCc2ccccc2)c(OC)c1
  1.07	0.01
COc1cc(-c2nc3c4ccccc4nc(=S)n3[nH]2)cc(OC)c1OC
  0.79	-0.05
Cc1nnsc1-c1nnc(SCC(=O)c2ccc(F)cc2)n1C1CC1
  0.82	0.27
CC(C)(C)NC(=O)CN(C(=O)C(=O)Nc1ccc2c(c1)OCCO2)C1CCCC1
  0.49	1.25
COc1ccccc1CC(=O)Nc1cccc(C(=O)Nc2nccs2)c1
  2.83	-0.02
COCCOC(=O)C1=C(C)OC(N)=C(C#N)C1c1ccc2c(c1)OCO2 (stereo unspecified)
  0.13	0.01
CSc1ncc(C(=O)Nc2cccc(C)c2C)c(C)n1
  0.55	0.92
COc1cc(S(=O)(=O)N2CCC(C(N)=O)CC2)c(C)cc1C
  0.1	6.17
Cc1ccc(C(=O)N2CCN(c3ccc(NC(=O)Cc4ccccc4)cc3)CC2)cc1
  0.08	1.22
NNC(=O)c1ccc(Oc2cc(Cl)cc(Cl)c2)o1
  0.04	-0.05
Cc1ccn2c(NC(C)(C)C)c(-c3cccs3)nc2c1
  0.81	-1.01
Cc1cnc(C(=O)OCC(=O)c2c(N)n(CC(C)C)c(=O)n(C)c2=O)cn1
  0.33	-0.01
C=C(C)Cn1c(SCC(=O)N/N=C/c2ccccc2OCC(=O)O)nnc1-c1ccc(Br)cc1
  0.85	0.9
CCOC(=O)Cc1csc(NC(=S)NC(=O)c2ccccc2Br)n1
  9.64*	-0.01*
O=C(Nc1ccc(Cl)cc1C(=O)O)c1ccc2c(c1)C(=O)N(Cc1ccco1)C2=O
  4.33	-1.21
O=S(=O)(c1ccc2c(c1)N(Cc1ccc(Cl)cc1)C1CCCN21)N1CCOCC1 (stereo unspecified)
  1.39	1.02
CCN(CC)S(=O)(=O)c1ccc(N2CCCC2)c(C(=O)OCC(=O)N2CCCC2)c1
  0.62	-0.58
CCCN1C(=O)C2C(C(=O)Nc3cccc(OC)c3)C3C=CC2(O3)C1C(=O)NC1CCCCC1 (stereo unspecified)
  0.43	1.6
COC(=O)c1sccc1NC(=O)c1ccccc1F
  0.15	-0.03
CC(C)(C)c1ccc(C(=O)Nc2ccc(S(N)(=O)=O)cc2)cc1
  0.38	-0.34
O=c1[nH]ncn1-c1ccccc1
  0.56	-1.29
CN1c2ccc(Cl)cc2C(=O)NC1C1CC=CCC1 (stereo unspecified)
  0.43	0.26
O=C(Nc1nncs1)Oc1ccccc1
  0.72	-0.37

Continued, starting with the last 2 of the part before.
Each structure is followed by: KCNQ2 pot	KCNQ2 pot baseline
CN1c2ccc(Cl)cc2C(=O)NC1C1CC=CCC1 (stereo unspecified)
  0.43	0.26
O=C(Nc1nncs1)Oc1ccccc1
  0.72	-0.37
CC1CCN(C(=O)C2CCC(CNS(=O)(=O)c3cccc4cccnc34)CC2)CC1 (stereo unspecified)
  0.95	-1.37
Clc1ccccc1/C=N/NC1=Nc2cccc3cccc1c23
  1.66	-0.98
CN1CCCNc2nc3ccccc3nc21
  1.55	-1.23
Cc1ccc(N(C(=O)c2csnn2)C(C(=O)NC2CCCCC2)c2ccccn2)cc1C (stereo unspecified)
  0.43	-0.82
CC(=O)c1cccc(NS(=O)(=O)N2CCCCC2)c1
  0.17	1.71
CC(=O)c1ccccc1N(C(=O)Cn1nnc2ccccc21)C(C(=O)NCC1CCCO1)c1ccc(N2CCOCC2)cc1 (stereo unspecified)
  0.87	1.54
O/N=C\c1cccn1-c1nccs1
  0.22	0.86
C=CCSc1nnc(NC(=O)C2CSC3(C)CCC(=O)N23)s1 (stereo unspecified)
  1.35	1.14
CCC(=O)N(CCc1ccc(S(N)(=O)=O)cc1)C1CC(=O)N(c2ccc(OC)cc2)C1=O (stereo unspecified)
  1.11	-1.46
COc1ccc(CNC(=O)CNC(=O)c2ccc(C(C)(C)C)cc2)cc1OC
  1.31	-0.85
CCN1C(=O)/C(=C2/Sc3ccccc3N2CCCS(=O)(=O)O)SC1=S
  0.63&0.97	-1.71&0.71
Cc1csc2nc3ccccc3c(=O)n12
  0.12	0.03
CC(C)C(c1nnnn1Cc1ccco1)N1CCN(C2CCCC2)CC1 (stereo unspecified)
  0.51	-1.92
O=C(O)c1cccc(Nc2nc(-c3ccc([N+](=O)[O-])cc3)nc3ccccc23)c1
  3.06	-1.25
O=C(CCSc1ccc(Cl)cc1)NC1CCCC1
  0.51	-0.5
CCn1c(C)nc2cc(C(=O)N/N=C/c3ccccc3)ccc21
  0.59	0.69
CCOC(=O)C1(CCCc2ccccc2)CCN(C2CCSCC2)CC1
  0.01	0.57
CCC(CC)NC(=O)c1n[nH]c(=O)c2ccccc12
  0.65	2.55
Cc1cc(Cl)ccc1OCCCC(=O)NC1CCN(C)CC1
  0.22	0.59
O=C(NCc1ccco1)C1CCCN1C(=O)Nc1cccc(Cl)c1 (stereo unspecified)
  0.65	0.95
CC1O[C@@H](O[C@H](C)CC[C@@H](C)O)C(O)C[C@H]1O (stereo partly specified)
  1.51	-0.41
O=C(O)Cc1coc2ccc3ccccc3c12
  0.01	-1.55
CCCn1c(=O)[nH]c(=O)c2[nH]cnc21
  0.06	-2.6
O=C(CSc1nnc(-c2ccccc2Cl)o1)Nc1ccc2c(c1)OCCO2
  0.29	0.11
Cc1ccc(C)c(S(=O)(=O)NCc2ccc(C(=O)N3CCOCC3)cc2)c1
  0.47	0
CN(CCC#N)C(=O)COC(=O)c1ccc2c(c1)C(=O)N(C1CCCCC1)C2=O
  0.34	-2.07
Cc1cccc(CS(=O)(=O)Cc2ccc(C(=O)NCc3cccs3)o2)c1
  2.26	-0.14
O=C(N/C(=C/c1cccs1)C(=O)N1CCOCC1)c1ccco1
  0.99	-1.62
COC(=O)c1cc(S(=O)(=O)NCCN2CCN(c3ccccc3F)CC2)c[nH]1
  0.52	-3.16
COc1ccc(CCNC(=O)c2cc3c(=O)n4ccccc4nc3n(C3CCCCC3)c2=N)cc1
  0.19	-0.04
COc1ccc2[nH]c(C(=O)N3CCN(C)CC3)c(C)c2c1
  0.26	0.95
CC(C(=O)NCC1CCCO1)N(C(=O)c1snc(C(N)=O)c1N)c1cccc(F)c1 (stereo unspecified)
  0.16	-0.67
CCCCNc1ccc(C(CC(N)=O)NC(=O)Cc2cccc3ccccc23)cc1[N+](=O)[O-] (stereo unspecified)
  0.77	-0.21
CC(=O)Oc1cc2c3c(c1)/C(=C1/SC(=S)NC1=O)C(=O)N3C(C)(C)C=C2C
  6.84*	-4.25*
Cc1oc(-c2ccc(Cl)cc2)nc1CSCC(=O)NC1CCN(Cc2ccccc2)CC1
  1.34	2.33
Cn1c(=O)c2c(nc3n2CCCN3CCc2ccccc2)n(C)c1=O
  0.76	-0.32
O=C(CN(Cc1ccc(F)cc1)C(=O)c1csnn1)NCc1ccc2c(c1)OCO2
  0.11	2.01
c1ccc2[nH]c(SCC3CCCCO3)nc2c1 (stereo unspecified)
  0.76	1.25
CC1Cc2nc(SCC(=O)NCc3ccco3)n(-c3ccccc3)c(=O)c2S1 (stereo unspecified)
  0.73	0.67
COc1cc(OC)cc(C(=O)N[C@H](C(=O)NCCc2ccc(S(N)(=O)=O)cc2)C(C)C)c1
  0.2	0.96
Cc1cccc(NC(=O)CSc2ncnc3sc(C)c(C)c23)n1
  0.74	-1.1
COc1ccc(-c2ccnc3c(C(=O)O)cnn23)cc1
  0.3	-1.05
COc1ccc(-n2c(SCC(=O)Nc3cc(C)on3)nc3c(c2=O)SCC3)cc1
  1.48	0.18
Cc1ccc(C)c(N2CCN(C(=O)CN3C(=S)NC(C)(C)CC3C)CC2)c1 (stereo unspecified)
  1.19	1.03
O=C(NC1C=CS(=O)(=O)C1)c1ccccc1 (stereo unspecified)
  0.09	0.48
CCOCCCNc1ccc(-c2ccccc2)nn1
  0.04	0.28
CCc1nnc(NS(=O)(=O)c2ccc(N=Cc3c(C)[nH]n(-c4ccc(C)cc4)c3=O)cc2)s1
  0.36	-1.27
Cc1ccc(C)c(N2CCN(S(=O)(=O)c3ccc4c(c3)NC(=O)CO4)CC2)c1
  1.31	-0.22
CCOC(=O)c1ccc(-n2c(C)nc3c(cnn3-c3ccccc3Cl)c2=O)cc1
  0.34	1.64
CC(=O)Nc1nonc1NC(=O)CSC1=NCCS1
  1.73	-2.29
CN1CCN(c2nc3c(c(=O)[nH]c(=O)n3C)n2CCOc2ccccc2)CC1
  1.8	0.43
Cc1cccc(NC(=O)C2CCCN(S(=O)(=O)c3ccc(-n4cnnn4)cc3)C2)c1 (stereo unspecified)
  1.13	2.69
COc1ccccc1Oc1ccc(NC(=O)c2ccc(Cl)cc2)cc1
  0.84	-0.1
COc1ccc(CCNC(=O)CC2SC(=NCCc3ccccc3)NC2=O)cc1OC (stereo unspecified)
  1.29	0.19
N#CCN1CCC(c2cc(-c3ccco3)n[nH]2)CC1
  0.45	-0.02
CCOC(=O)N1CCN(C(=O)C2CCCN(Cc3nc(-c4ccc(Cl)cc4)oc3C)C2)CC1 (stereo unspecified)
  1.3	0.56
C#CCOC(=O)Nc1cc(C)n(-c2ccccc2)n1
  0.62	-1.8
Cc1ccc(NC(=O)CCC2CC(C)(C)OC2=O)cc1 (stereo unspecified)
  0.38	0
CC(C)(C)c1nn(-c2ccccc2)c2[nH]c(=O)c(CNCc3ccc4c(c3)OCO4)cc12
  1.36	-1.1
COCCn1c(-c2ccc(OC)c(OC)c2)nc2ccccc21
  0.96	-0.06

Further entries.
Each structure is followed by: KCNQ2 pot	KCNQ2 pot baseline
CC(C)c1nnc(NC(=O)c2cnccn2)s1
  0.31	-1.16
O=C(O)/C(=C\c1ccc(Cl)cc1)c1ccc(F)cc1
  0.58	-2.04
CC(=O)Nc1ccc(C(=O)CSc2ncn(-c3ccccc3)n2)cc1
  1.82	-0.05
CCOc1ccc(S(=O)(=O)Nc2nc3ccccc3nc2N2CCN(C)CC2)cc1
  0.13	-0.03
CCOCCCNC(=O)C1CCCN(S(=O)(=O)c2ccc(-n3cnnn3)cc2)C1 (stereo unspecified)
  0.67	-0.04
O=C(NN=C1CCCCCCC1)c1ccccn1
  0.07	-1.23
Cc1ccc(C)c(NC2=C(Cl)C(=O)OC2OC(C)C)c1 (stereo unspecified)
  1.15	1.89
Cc1[nH]c2ccc(OC(F)(F)F)cc2c1CCN1C(=O)c2ccc(C(=O)O)cc2C1=O
  0.54	-0.2
Cc1nc2nc(C)c(CCC(=O)NCCCN3CCN(c4cccc(Cl)c4)CC3)c(C)n2n1
  0.85&1	-1.33&-0.67
COc1ccc(NC(=O)CN(C)C(=O)c2ccccc2OC)cc1
  1.36	0.01
COc1ccc2c(c1OC)C(=O)OC2c1c(O)nc(SC)n(-c2ccccc2)c1=O (stereo unspecified)
  1.93	1.29
CCc1cc(C(=O)N/N=C/c2ccc(OC)cc2)c2ccccc2n1
  0.02	0.55
Clc1ccc(-c2noc(CSc3nnc(-c4ccncc4)n3-c3ccccc3)n2)cc1
  0.84	-0.04
O=c1c2cc(N3CCOCC3)ccc2[nH]c(=S)n1Cc1ccccn1
  0.04	1.68
NS(=O)(=O)c1ccc(NS(=O)(=O)c2ccc(NC(=S)Nc3ccccc3)cc2)cc1
  0.98	-0.37
CCOC(=O)C(NC(=O)Nc1ccccc1)(OCC)C(F)(F)F (stereo unspecified)
  1.54	-0.76
COC(=O)CC1Nc2ccccc2SC1=O (stereo unspecified)
  0.66	-0.6
CCN(CC)S(=O)(=O)c1ccc(C(=O)OC2CCCCC2CN(C)C)cc1 (stereo unspecified)
  0.36	-0.62
Nc1ncc(-c2ccccc2)n1CC1CCCO1 (stereo unspecified)
  0.83	-1.07
O=C(O)c1nsc(Cl)c1Cl
  0.51	-0.85
CCCCCC(=O)N/N=C(\C)c1ccc(Cl)cc1
  1.74	1.54
Cc1oc(-c2ccccc2)nc1CC(=O)O
  1.19	1.12
COc1ccc(/C=C2/SC(=S)N(CCC(=O)O)C2=O)cc1
  0.41	-0.09

An excerpt. The share of hits here may be higher or lower than overall.
